# Screens from PubChem BioAssay.
# NOMO-1 viab – STK33 inhibitor candidate reducing NOMO-1 cell viability. hit rate 7.5% among 37,000. NOMO-1 AML viability, CellTiter-Glo luminescence, 72 h. inhibition, % (no concentration beside the values). AID 2330;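 active = most replicates above 80%; inconclusive = exactly half above 80%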;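 also: wells of about 30 µL received 25 nL stock; 0% = median of vehicle wells and 100% = reference inhibitor level; the first replicate is given; inactives centre near 10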
# Starred values were filed as active, the others as inactive; u = inconclusive.
SMILES | NOMO-1 viab
C[C@H](CO)N1C[C@H](C)[C@H](CN(C)C(=O)Nc2ccccc2)Oc2ccc(NC(=O)Cc3cn(C)c4ccccc34)cc2CC1=O | -12
CNC[C@@H]1Oc2c(N)cccc2C(=O)N([C@@H](C)CO)C[C@H]1C | 6
C[C@H](CO)N1C[C@H](C)[C@H](CN(C)C(=O)Nc2ccc(C(F)(F)F)cc2)Oc2ccc(NC(=O)CCC(F)(F)F)cc2CC1=O | 32
CC(C)NC(=O)Nc1cccc2c1O[C@H](CN(C)C(=O)Nc1ccc3c(c1)OCO3)[C@H](C)CN([C@H](C)CO)C2=O | 1
COc1cccc2cc(-c3nnc(SCC(=O)c4ccccc4)n3C)oc12 | 3
CCn1c(Cn2nnc3ccccc32)nnc1SCC(=O)c1ccc(Br)cc1 | 8
O=c1c(-c2c(O)cc(O)c3c(=O)cc(-c4ccc(O)cc4)oc23)c(-c2ccc(O)cc2)oc2cc(O)cc(O)c12 | 13
COc1ccc(-n2nc3cc(C)c(NC(=S)NC(=O)COc4cccc(C)c4)cc3n2)cc1Cl | 47
CCNC(=S)N1N=C2c3ccccc3CCC2C1c1ccc(F)cc1 (configuration not stated) | 113*
COc1cc([N+](=O)[O-])ccc1NC(=O)CN1CCOCC1 | -15
COc1ccc(NC(=O)Cn2cnc3sc(-c4ccccc4)cc3c2=O)cc1 | -7
C[C@@H]1CN([C@H](C)CO)C(=O)c2cc(NC(=O)C3CCCCC3)ccc2O[C@@H]1CN(C)C(=O)NC1CCCCC1 | 5
CNC[C@@H]1Oc2c(NC(=O)c3nc4ccccc4s3)cccc2C(=O)N([C@H](C)CO)C[C@H]1C | 37
COc1ccc(NC(=O)Nc2ccc3c(c2)CC(=O)N([C@H](C)CO)C[C@@H](C)[C@H](CN(C)S(=O)(=O)c2ccc(C)cc2)O3)cc1 | -5
C[C@@H]1CN([C@H](C)CO)C(=O)c2cc(NS(=O)(=O)c3ccccc3)ccc2O[C@@H]1CN(C)S(C)(=O)=O | 19
COc1ccc(OC)c(NC(=O)COc2ccc(C(=O)Nc3ccc(C)cc3)cc2)c1 | 4
C[C@H]1CN([C@@H](C)CO)C(=O)c2cc(NC(=O)CCC(F)(F)F)ccc2O[C@@H]1CN(C)Cc1ccc(C(=O)O)cc1 | -4
C[C@H]1CN([C@@H](C)CO)C(=O)c2cc(NC(=O)CCC(F)(F)F)ccc2O[C@H]1CN(C)C(=O)Nc1cccc2ccccc12 | 7
COc1ccc(NC(=O)N(C)C[C@@H]2Oc3ccc(NS(=O)(=O)c4ccc(F)cc4)cc3CC(=O)N([C@@H](C)CO)C[C@@H]2C)cc1 | 3
COc1ccc(NC(=O)Nc2ccc3c(c2)C(=O)N([C@@H](C)CO)C[C@@H](C)[C@@H](CN(C)S(=O)(=O)c2ccc(Cl)cc2)O3)cc1 | 13
C[C@H](CO)N1C[C@H](C)[C@H](CN(C)Cc2ccc(Oc3ccccc3)cc2)Oc2ccc(NC(=O)Nc3ccc4c(c3)OCO4)cc2CC1=O | 57
Cc1cc(C(=O)Nc2cccc3c2O[C@H](CN(C)S(=O)(=O)c2cn(C)cn2)[C@@H](C)CN([C@@H](C)CO)C3=O)n(C)n1 | -12
Cc1noc(C)c1NC(=O)N(C)C[C@@H]1Oc2ccc(NS(=O)(=O)c3ccc(F)cc3)cc2CC(=O)N([C@H](C)CO)C[C@H]1C | -1
CC(=O)c1cccc(NC(=O)C(CC(C)C)N2C(=O)c3ccccc3C2=O)c1 (configuration not stated) | 15
C[C@H]1CN([C@@H](C)CO)C(=O)c2cccc(NC(=O)Nc3ccc(F)cc3)c2O[C@@H]1CN(C)S(=O)(=O)c1cccs1 | 15
C[C@@H]1CN([C@H](C)CO)C(=O)c2cccc(NC(=O)Nc3ccc(F)cc3)c2O[C@H]1CN(C)CC1CCCCC1 | 113*
COc1ccc(NC(=O)COc2cc(C)ccc2C)cc1NC(=O)c1ccco1 | -14
CCSc1nccc(-c2ccc3c(c2)CCC(C)(C)O3)n1 | 9
COc1ccc(S(=O)(=O)Nc2cccc3c2O[C@@H](CN(C)C(=O)Nc2cccc4ccccc24)[C@@H](C)CN([C@@H](C)CO)C3=O)cc1 | 25
CC(=O)c1cccc(NC(=O)CSc2nnc3c(n2)[nH]c2ccccc23)c1 | 59
COc1ccc(S(=O)(=O)N(CC(N)=O)C2CCCCC2)cc1Cl | 9
COc1cccc(OCCSc2nc(N)cc(N)n2)c1 | 43
COc1ccccc1C(=O)N1CCN(c2ccc([N+](=O)[O-])c(NCc3ccco3)c2)CC1 | 54
O=C(O)c1cc(NC(=O)C2CCCO2)cc(NC(=O)C2CCCO2)c1 (configuration not stated) | 21
C[C@@H]1CN([C@H](C)CO)C(=O)c2cc(NS(=O)(=O)c3ccc(Cl)cc3)ccc2O[C@H]1CN(C)C | 10
COc1ccc(-n2c(CCn3c4ccccc4c4ccccc43)n[nH]c2=S)cc1 | -2
C[C@H](CO)N1C[C@H](C)[C@@H](CN(C)C(=O)Nc2ccc(C(F)(F)F)cc2)Oc2ccc(NC(=O)Nc3ccccc3)cc2C1=O | 2
C[C@@H]1CN([C@@H](C)CO)C(=O)c2cccc(NC(=O)CCCCCC(=O)Nc3ccccc3N)c2O[C@@H]1CN(C)C(=O)Nc1ccccc1 | 12
COc1ccc(S(=O)(=O)Nc2ccc3c(c2)C(=O)N([C@@H](C)CO)C[C@H](C)[C@@H](CN(C)S(=O)(=O)c2ccc(OC)cc2)O3)cc1 | 10
Cc1ccc(S(=O)(=O)N(C)C[C@H]2Oc3ccc(NC(=O)Nc4ccc(C(F)(F)F)cc4)cc3CC(=O)N([C@@H](C)CO)C[C@H]2C)cc1 | 111*
Cc1ccc(S(=O)(=O)N(C)CC(=O)Nc2ccc(C#N)cc2)cc1 | -13
COc1ccccc1-c1nnc(SCC(=O)Nc2ccccc2C(F)(F)F)n1C | 17
C[C@@H]1CN([C@@H](C)CO)C(=O)Cc2cc(NC(=O)C3CC3)ccc2O[C@@H]1CN(C)C(=O)Nc1ccc(F)cc1 | 2
Cc1ccc(N(CCCCN2C(=O)c3ccccc3C2=O)C(=O)c2cccc(Cl)c2)cc1 | 44
COC(=O)c1ccccc1NC(=O)CN(c1cccc(F)c1)S(C)(=O)=O | -4
C[C@@H]1CN([C@@H](C)CO)C(=O)c2cc(NS(=O)(=O)c3ccc(F)cc3)ccc2O[C@H]1CN(C)Cc1ccc(C(=O)Nc2ccccc2N)cc1 | u
CC(=O)Oc1ccc(N(C(C)=O)S(=O)(=O)c2ccc(Cl)cc2)cc1 | 42
Cc1cc(C)n(CC(O)COc2ccc3cc(Br)ccc3c2)n1 (configuration not stated) | 3
CC(Sc1nc2ccccc2c(=O)[nH]1)C(=O)Nc1ccc(Cl)cc1 (configuration not stated) | -10
C[C@@H]1CN([C@@H](C)CO)C(=O)c2cc(N(C)C)ccc2O[C@H]1CN(C)C | 13
C[C@@H]1CN([C@@H](C)CO)C(=O)Cc2cc(NC(=O)c3ccncc3)ccc2O[C@@H]1CN(C)S(=O)(=O)c1cn(C)cn1 | -7
COc1ccc(CN(C)C[C@@H]2Oc3ccc(NS(=O)(=O)c4ccc(F)cc4)cc3C(=O)N([C@@H](C)CO)C[C@@H]2C)cc1 | 18
C[C@@H]1CN([C@H](C)CO)C(=O)c2cccc(NC(=O)c3nc4ccccc4s3)c2O[C@H]1CN(C)S(=O)(=O)c1ccccc1 | 47
COc1ccc(NC(=O)Nc2ccc3c(c2)C(=O)N([C@@H](C)CO)C[C@@H](C)[C@H](CN(C)Cc2ccc4c(c2)OCO4)O3)cc1 | 28
COc1ccc(S(=O)(=O)Nc2ccc3c(c2)C(=O)N([C@H](C)CO)C[C@H](C)[C@H](CN(C)S(=O)(=O)c2cccs2)OCCCC[C@@H](C)O3)cc1 | 25
Cc1ccc(F)cc1NC(=O)CSc1nnc(-c2ccccc2Cl)o1 | -8
O=c1c2c3c(sc2nc(SCc2nc(-c4cccs4)no2)n1-c1ccccc1)CCCC3 | 7
C[C@H]1CN([C@@H](C)CO)C(=O)c2cc(NC(=O)CCC(F)(F)F)ccc2O[C@H]1CN(C)C(=O)Nc1ccccc1 | 9
COc1ccc(NC(=O)Nc2ccc3c(c2)C(=O)N([C@H](C)CO)C[C@H](C)[C@H](CN(C)C)O3)cc1 | 2
CC(=O)Nc1ccc(C(=O)CSc2cc(C)c3ccccc3n2)cc1 | 14

# Four entries drawn at random from the list so far, as already listed:
SMILES | NOMO-1 viab
C[C@@H]1CN([C@@H](C)CO)C(=O)c2cccc(NC(=O)CCCCCC(=O)Nc3ccccc3N)c2O[C@@H]1CN(C)C(=O)Nc1ccccc1 | 12
Cc1noc(C)c1NC(=O)N(C)C[C@@H]1Oc2ccc(NS(=O)(=O)c3ccc(F)cc3)cc2CC(=O)N([C@H](C)CO)C[C@H]1C | -1
COc1ccc(NC(=O)Nc2ccc3c(c2)C(=O)N([C@@H](C)CO)C[C@@H](C)[C@@H](CN(C)S(=O)(=O)c2ccc(Cl)cc2)O3)cc1 | 13
Cc1ccc(S(=O)(=O)N(C)CC(=O)Nc2ccc(C#N)cc2)cc1 | -13

# Next entries:
SMILES | NOMO-1 viab
C[C@H](CO)N1C[C@H](C)[C@H](CN(C)C)Oc2ccc(NS(=O)(=O)c3cccs3)cc2C1=O | 18
CCCc1cc(=O)n2[nH]c(NCc3ccccc3OC)nc2n1 | -3
COc1ccc(NC(=O)Nc2ccc3c(c2)CC(=O)N([C@@H](C)CO)C[C@@H](C)[C@@H](CN(C)S(=O)(=O)c2ccccc2)O3)cc1 | 1
COc1ccc(C(=O)COc2cccc(NC(=O)c3ccccc3C)c2)cc1 | 5
CNC[C@H]1Oc2ccc(NC(=O)Nc3c(C)noc3C)cc2CC(=O)N([C@@H](C)CO)C[C@@H]1C | 4
C[C@@H]1CN([C@H](C)CO)C(=O)Cc2cc(NC(=O)Nc3ccc4c(c3)OCO4)ccc2O[C@@H]1CN(C)C(=O)Nc1ccc2c(c1)OCO2 | 8
CC1CCc2c(sc(NC(=O)CCN3C(=O)c4ccccc4C3=O)c2C#N)C1 (configuration not stated) | 2
C[C@@H]1CN([C@H](C)CO)C(=O)Cc2cc(NC(=O)C3CC3)ccc2O[C@@H]1CN(C)S(=O)(=O)c1ccc(F)cc1 | 13
Cc1cc(C(=O)Nc2ccc(OCC(=O)O)cc2)ccc1[N+](=O)[O-] | -15
C[C@H](CO)N1C[C@H](C)[C@@H](CN(C)C(=O)Nc2ccccc2)Oc2ccc(NC(=O)Nc3ccc(F)cc3)cc2C1=O | -7
O=C(O)c1ccc2nc(-c3ccccc3)c(-c3ccccc3)nc2c1 | 17
C[C@H](CO)N1C[C@H](C)[C@H](CN(C)Cc2ccc3c(c2)OCO3)Oc2ccc(NC(=O)Nc3ccc(F)cc3)cc2CC1=O | 63
CC(C)NC(=O)N(C)C[C@@H]1OCCCC[C@@H](C)Oc2ccc(NS(C)(=O)=O)cc2C(=O)N([C@H](C)CO)C[C@@H]1C | 5
C[C@H](CO)N1C[C@H](C)[C@@H](CN(C)CC2CC2)Oc2c(NC(=O)NC3CCCCC3)cccc2C1=O | 40
Cc1ccc(Oc2ncccc2NC(=O)c2ccc(Cl)cc2Cl)c2c1CCC2 | 35
Nn1c(-c2ccccc2)nc2ccccc2c1=O | -3
CC1=C(C(=O)Nc2ccccc2C)C(c2ccccc2OCc2ccccc2)n2ncnc2N1 (configuration not stated) | -24
C[C@@H]1CN([C@H](C)CO)C(=O)c2cccc(NS(=O)(=O)c3cn(C)cn3)c2O[C@H]1CN(C)Cc1ccccc1 | 34
Cc1c(CO)c2ccccc2n1Cc1ccccc1C#N | 121*
Cc1ccc(S(=O)(=O)Nc2cccc3c2O[C@H](CN(C)CC2CC2)[C@@H](C)CN([C@H](C)CO)C3=O)cc1 | -8

# Grouped by structure, those above with bromine.
SMILES | NOMO-1 viab
CCn1c(Cn2nnc3ccccc32)nnc1SCC(=O)c1ccc(Br)cc1 | 8
Cc1cc(C)n(CC(O)COc2ccc3cc(Br)ccc3c2)n1 (configuration not stated) | 3

# Single entries from the entries so far:
# NOMO-1 viab result of CC1CCc2c(sc(NC(=O)CCN3C(=O)c4ccccc4C3=O)c2C#N)C1 (configuration not stated) = 2
# NOMO-1 viab result of CC(C)NC(=O)N(C)C[C@@H]1OCCCC[C@@H](C)Oc2ccc(NS(C)(=O)=O)cc2C(=O)N([C@H](C)CO)C[C@@H]1C = 5
# NOMO-1 viab result of Cc1cc(C(=O)Nc2ccc(OCC(=O)O)cc2)ccc1[N+](=O)[O-] = -15
# NOMO-1 viab result of C[C@H](CO)N1C[C@H](C)[C@@H](CN(C)C(=O)Nc2ccccc2)Oc2ccc(NC(=O)Nc3ccc(F)cc3)cc2C1=O = -7

# The list continues:
SMILES | NOMO-1 viab
O=C(CSc1n[nH]c(-c2ccncc2)n1)Nc1ccc(Br)cc1 | 5
Cc1noc(C)c1NC(=O)Nc1ccc2c(c1)CC(=O)N([C@H](C)CO)C[C@@H](C)[C@@H](CN(C)S(=O)(=O)c1c(C)noc1C)O2 | 5
C[C@H]1CN([C@@H](C)CO)C(=O)Cc2cc(NC(=O)Nc3cccc4ccccc34)ccc2O[C@H]1CN(C)Cc1ccncc1 | 30
C[C@H](CO)N1C[C@H](C)[C@H](CN(C)S(C)(=O)=O)Oc2ccc(NC(=O)c3ccncc3)cc2C1=O | 0
C[C@@H]1CN([C@H](C)CO)C(=O)Cc2cc(NS(=O)(=O)c3cccs3)ccc2O[C@H]1CN(C)S(=O)(=O)c1cn(C)cn1 | -12
C[C@@H]1CCCCO[C@H](CN(C)CC2CCCCC2)[C@@H](C)CN([C@H](C)CO)C(=O)c2cc(NC(=O)Nc3ccc(C(F)(F)F)cc3)ccc2O1 | 112*
COc1ccc(S(=O)(=O)Nc2ccc3c(c2)C(=O)N([C@@H](C)CO)C[C@@H](C)[C@H](CN(C)C(=O)Nc2ccc4c(c2)OCO4)O3)cc1 | -6
O=C(Cn1cnc2sc(-c3ccccc3)cc2c1=O)Nc1cccc(C(F)(F)F)c1 | 20
CCSc1nc(O)c(C(C)CC)c(=O)[nH]1 (configuration not stated) | 0
O=C(COc1ccc2oc3c(c2c1)CCCC3)Nc1cccnc1 | 42
COc1ccc(NC(=O)Nc2ccc3c(c2)C(=O)N([C@H](C)CO)C[C@@H](C)[C@@H](CN(C)Cc2ccc(C(F)(F)F)cc2)O3)cc1 | 19
Cc1cc(C)n2c(SCc3c(C)noc3C)nnc2n1 | 0
CCC(=O)c1ccc(OCC(O)Cn2nc(C)c(Br)c2C)cc1 (configuration not stated) | 2

# This is a subset, so the mix of outcomes need not match the whole.
